Screening data as filed in PubChem.
ugtP null kill – kills S. aureus RN4220 lacking UgtP | S. aureus RN4220 ugtP deletion, OD600 growth, 16 h; some inactives read as strong as hits | growth inhibition, % (test concentration not listed) | hit rate 0.54% among 330,000;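 active = z-score under -3 and OD600 up to 0.15 on both plates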;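 also: plate controls were untreated wells for no effect and antibiotic for full effect; wells of about 80 µL received 100 nL stock; the first replicate is given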
BJeLR viability – kills HRASV12-expressing BJeLR cells; BJeLR (HRASV12) viability, CellTiter-Glo ATP luminescence, 48 h; reference of the scale not given here; inhibition, % (no concentration beside the values); hit rate 0.17% among 300,000;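 active = replicate mean above 50%; inconclusive = above 50% but judged a plate artefact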;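 also: 50 nL library stock added to about 25 µL; numbers are from one replicate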
Mtb hypoxia rep – Mtb hypoxia fluorescent reporter inhibition. M. tuberculosis hypoxia-regulated fluorescent reporter, fluorescence. fluorescence inhibition, % (no concentration beside the values). hit rate 0.1% among 300,000. AID 1159583;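 active = 35 to 45% if threefold the growth effect, above 45% if 1.5-fold the growth effect; inactive = the rest, general growth blockers included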;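 also: wells of about 50 µL received 100 nL stock; 0% = vehicle wells and 100% = reference inhibitor wells; whole bacteria with a GFP reporter of the hypoxia response; strong numbers were not always called active; many hits fall short of the cut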
Sa RN4220 lethal – S. aureus RN4220 growth inhibition | inhibition, % (test concentration not listed) | AID 1259311 | hit rate 0.33% among 330,000 | OD600, 16 h;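 active = z-score of -3 or lower and OD600 up to 0.18 on both plates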;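 also: plate controls were untreated cells for no effect and reference antibiotic for full effect; stock transfer was 100 nL into about 80 µL; one replicate is shown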
Bead autofluor – compound fluorescence in toxin protease inhibitor counterscreen; compound autofluorescence counterscreen, microsphere flow cytometry; stronger effect = higher value; hit rate 3.1% among 360,000; fluorescence intensity (test concentration not listed);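 active = at least 3 SD above the mean of all compounds, about 16000 in these data; inconclusive = too few beads counted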;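 also: 100 nL of 1 mM stock went into each well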
PrP UTR inh – suppresses PrP 5' UTR mRNA reporter expression; inhibition, % (concentration not given with the values); hit rate 0.35% among 340,000; cell-based PrP 5' UTR mRNA reporter, plate reader;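 active = every replicate at 50% or more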;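 also: 0 = median of the neutral control wells; tested in H4 reporter cells; numbers are from one replicate; inactives centre near -14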
Mtb hypoxia rep growth – second read-out of Mtb hypoxia rep, no call of its own (marks repeat the call); growth inhibition, %; measured here: M. tuberculosis growth (absorbance);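 0% = vehicle and 100% = reference antibiotic; read after six days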
* = called active by the depositor; u = inconclusive; x = no result given.

SMILES,ugtP null kill,BJeLR viability,Mtb hypoxia rep,Mtb hypoxia rep growth,Sa RN4220 lethal,Bead autofluor,PrP UTR inh
CCOC(=O)c1sc2nc(SCC(=O)N(CC)CC)n(CCCN3CCCC3=O)c(=O)c2c1C,2,-4,2,14,-0.9,3602,-16
CN(C)C(=O)c1cc([N+](=O)[O-])cc([N+](=O)[O-])c1N(C)C,-1,9,-6,-8,0.5,6601,-10
Cc1nn(-c2ccc(F)cc2)c(C)c1CN1CCN(CCC(C)C)C(CCO)C1 (centres undefined),6,-1,6,-6,2.0,4470,-4
COc1ccc(-c2nnn(CC(=O)Nc3sc4c(c3C#N)CCCC4)n2)cc1,-6,-1,3,5,7.9,6339,-34
COc1ccc(Cl)cc1N(CC(=O)Nc1ccc2c(c1)OCCO2)S(C)(=O)=O,-3,8,-6,8,-0.8,9773,-41
Cc1cc(C)cc(OCC(=O)N/N=C/c2ccccn2)c1,x,0,x,x,x,3896,-13
O=C(O)c1ccc(N=NC(=NNc2ccc(C(=O)O)cc2)c2ccccc2)cc1,-1,x,22,1,1.3,x,x
CCOC(=O)NN=Cc1cccnc1,11,x,7,8,3.9,x,x
O=C(CN1CCN(Cc2ccccc2Cl)CC1)NN=Cc1cccs1,-9,x,-1,-6,-2.5,x,x
Fc1cccc(Nc2nc(N3CCOCC3)nc(N3CCOCC3)n2)c1,-12,-4,-1,-2,1.9,x,-12
CC(=O)Nc1cccc(C(=O)OCC(=O)NC(=O)Cc2ccccc2)c1,-1,-5,6,-2,0.6,u,-9
Cn1c(=O)cc(OCCCC(=O)Nc2ccc3c(c2)OCCO3)c2ccccc21,-5,-7,-3,16,2.1,21630*,-24
Cc1nnsc1NC(=O)OCC(C)C,1,-6,x,x,0.8,2651,-3
Cc1ccc(-n2c(-c3cccnc3)n[nH]c2=S)c(C)c1,1,0,7,1,4.1,u,-7
CCNC(=S)Nc1ccc(C)c(S(=O)(=O)Nc2ccccc2OC)c1,6,8,11,12,0.7,3733,-9
CCOCCc1nnc(NC(=O)C2CC(=O)N(CCc3ccc(F)cc3)C2)s1 (centres undefined),-1,-7,4,-2,2.8,3965,-7
Cc1ccc2nc(N3CCN(C(=O)c4ccco4)CC3)sc2c1,2,10,12,0,4.2,u,-70
Nc1nc(SC2c3cccc4cccc(c34)C2NS(=O)(=O)c2ccccc2)n[nH]1 (centres undefined),1,14,3,2,11,2524,-25
O=C(COC(=O)c1ccc(Cl)c(S(=O)(=O)N2CCCCC2)c1)NCc1ccco1,14,3,11,5,7.9,4455,-17
CC(C)[C@H](N)c1nnc(SCC(=O)c2ccc(Cl)cc2)o1,4,16,4,-3,2.0,8019,-30
CN(c1cccc(NC(=O)CN(c2ccc(F)cc2)S(C)(=O)=O)c1)S(C)(=O)=O,10,2,8,9,3.9,3362,9
COc1cccc(N2CC(NC(=O)c3ccc4ccccc4c3)CC2=O)c1 (centres undefined),4,1,1,9,-6.8,6740,-4
CCCS(=O)(=O)c1nc(S(=O)(=O)c2ccc(C)cc2)c(N2CCc3ccccc3C2)s1,-9,-12,-7,14,-0.4,2101,-16
CCCCSc1nc2sc3c(c2c(=O)n1-c1ccc(OC)cc1)CCN(C)C3,83,11,-1,5,-2.1,4814,-12
COc1ccc(-n2nnc3c(SCC(=O)Nc4ccccc4F)ncnc32)cc1,5,8,-8,-5,4.3,4585,-7
CCOc1ccc(OCCC(=O)N(CCOC)c2c(N)n(Cc3ccccc3)c(=O)[nH]c2=O)cc1,7,x,3,-2,4.7,4063,-19
CS(=O)(=O)N1CCN(c2ccc([N+](=O)[O-])c(NCCN3CCOCC3)c2)CC1,2,-5,16,4,3.8,18351*,-2
CC(=O)Nc1ccccc1NC(=O)c1ccc(C)c(C)c1,3,-5,10,0,-2.9,4180,-12
Cc1ccc(CNC(=O)COC(=O)C2CC2)cc1,7,x,18,14,3.8,2885,-18
C=CCN(CC=C)c1cnn(-c2nc3ccccc3[nH]2)c(=O)c1Cl,2,2,5,10,3.4,21324*,-75
CC(NC(=O)NCC1CCCO1)(C(F)(F)F)C(F)(F)F (centres undefined),2,5,x,x,4.7,3846,-11
O=C(CN1CCCCCC1)Nc1ccc(Cl)cn1,6,-3,16,27,8.6,3798,-4
CCOc1ccc(-c2nc(=S)[nH][nH]2)cc1,8,-6,x,x,-3.3,2623,-36
CC(C)(C)OC(=O)C1C(=O)CC(C)(O)C(C(=O)OC(C)(C)C)C1c1ccco1 (centres undefined),3,-2,7,12,1.0,4607,4
Cc1cc(NC(=O)CSc2nnc(C(F)(F)F)n2C)no1,10,x,-6,2,6.2,4868,-4
O=C(CN1C(=O)NC2(CCOc3ccccc32)C1=O)NCCc1ccccc1 (centres undefined),3,x,10,3,1.7,8347,-27
C=CCc1ccc(OCC(O)CN2CCN(c3ccccc3)CC2)c(OC)c1 (centres undefined),5,-8,12,-1,2.7,4516,-31
Cc1coc2cc3oc(=O)c(CCC(=O)NCCCn4ccnc4)c(C)c3cc12,-12,1,x,x,7.5,5748,-33
COc1ccc(N(C)S(=O)(=O)c2cccc(C(=O)OC(C(=O)Nc3cc(C)cc(C)c3)c3ccccc3)c2)cc1 (centres undefined),5,1,7,1,-1.4,2464,-23
CCCCNC(=O)c1c[nH]c2ccc(S(=O)(=O)Nc3ccc(OCC)cc3)cc2c1=O,12,-6,6,11,4.5,4274,-6
O=C(O)C(O)c1ccco1 (centres undefined),1,x,-10,-2,2.5,2477,-24
N#CC1=C(N)Oc2cc(Nc3ccccc3)ccc2C1c1ccncc1 (centres undefined),25,1,17,-7,-4.0,u,-2
COC(=O)c1sc(NC(=O)c2ccc(OC)cc2OC)nc1C,-10,14,-4,12,-1.4,8881,51
Cc1c(/C=N/NC(N)=O)c2ccccn2c1C(=O)c1ccc(F)cc1,x,-4,x,x,x,2688,-6
CCC(=O)Nc1nnc(SCC(=O)c2ccc3c(c2)Cc2ccccc2-3)s1,-14,-1,5,0,6.9,10298,-20
COC(=O)c1cn(-c2ccccc2)nc1C(=O)OC,-1,-4,-6,1,0.8,u,-6
COc1ccccc1CNC(=O)c1ccc(CS(=O)Cc2cccc(Cl)c2)o1 (centres undefined),1,5,1,4,-0.9,5124,-17
COc1cccc(CN2CC(O)=C(c3nc(-c4ccc(Cl)cc4)cs3)C2=N)c1,1,-3,9,5,-6.9,3585,-15
CCSc1nnnn1-c1ccccc1,0,-8,7,-1,-11,3335,-11
Brc1cccc(-c2cnco2)c1,4,6,5,8,-2.2,3910,23
Cc1nn(-c2ccccc2)c(Cl)c1C=NNC(=O)CNc1n[nH]c(=O)[nH]c1=O,1,x,-1,6,2.7,x,x
O=C(NCCc1ccccc1)c1n[nH]c2ccccc12,-2,0,2,5,4.4,2269,-66
Cc1ccc2nc(S(=O)(=O)O)[nH]c2c1,-3,3,-5,5,-2.8,10733,-28
N#Cc1c(N)c(C(=O)c2ccc(Br)cc2)n2c1CCC2,-4,14,x,x,-2.9,3545,-8
COc1ccc(CCNC(=O)COC(=O)CCC(=O)c2cccs2)cc1OC,0,x,5,2,4.7,4023,-40
COc1ccc(C(C#N)(CC(=O)O)c2cnccn2)cc1OC (centres undefined),-12,-3,14,9,2.5,4163,-7
COc1cccc(CN(C)C(=O)c2ccc(NS(=O)(=O)c3ccc(F)cc3)cc2)c1OC,-2,-6,-5,-1,4.1,u,-6
O=C(CSCc1c(Cl)cccc1Cl)NN1C(=O)c2ccccc2C1=O,8,1,-3,3,4.2,11165,-12
CCOC(=O)c1sc(N=Cc2c(O)ccc3ccccc23)cc1C,-3,x,-9,7,-2.4,x,x
CCOc1ccc(C(=O)NCCC(=O)N2CCC3(CC2)NCCc2[nH]cnc23)cc1OCC,17,2,1,9,6.0,6149,-13

Entries of single compounds from above:
Cc1c(/C=N/NC(N)=O)c2ccccn2c1C(=O)c1ccc(F)cc1 reads ugtP null kill = x; BJeLR viability = -4; Mtb hypoxia rep = x; Mtb hypoxia rep growth = x; Sa RN4220 lethal = x; Bead autofluor = 2688; PrP UTR inh = -6
O=C(O)c1ccc(N=NC(=NNc2ccc(C(=O)O)cc2)c2ccccc2)cc1 reads ugtP null kill = -1; BJeLR viability = x; Mtb hypoxia rep = 22; Mtb hypoxia rep growth = 1; Sa RN4220 lethal = 1.3; Bead autofluor = x; PrP UTR inh = x

More results follow.
SMILES,ugtP null kill,BJeLR viability,Mtb hypoxia rep,Mtb hypoxia rep growth,Sa RN4220 lethal,Bead autofluor,PrP UTR inh
O=C(Nc1ccc2nc(-c3ccco3)c(-c3ccco3)nc2c1)N1CCN(c2ccccn2)CC1,-3,5,1,5,18,5771,6
COc1cc2cc(CN(CCO)S(=O)(=O)c3ccccc3)c(=O)[nH]c2cc1OC,-5,1,-9,7,-0.8,8080,-19
COC(=O)COc1cccc(-n2cnnn2)c1,2,6,4,10,3.2,8816,-18
C=CCN1CCN(C(CC(C)C)c2nnnn2CCOC)CC1 (centres undefined),8,-3,x,x,5.4,2795,12
CCOC(=O)c1cc(NC(=O)C2C3CCC(O3)C2C(=O)O)cc(C(=O)OCC)c1 (centres undefined),-6,14,0,7,-1.0,23079*,-13
COc1cccc(C(=O)n2cnnc2N)c1OC,-1,1,7,2,0.4,19978*,-15
CCOC(=O)CNC(=O)CSc1nc(-c2ccc(C)cc2)ns1,9,4,21,16,-0.3,3193,-11
O=C(CSc1n[nH]c(=O)n1-c1ccc2c(c1)OCCO2)Nc1ccccc1,0,-9,2,2,0.0,x,-10
CCCCn1c(O)c(C=NCc2ccc3c(c2)OCO3)c(=O)[nH]c1=O,5,2,15,10,3.9,4510,-15
Cc1ccc2c(CNCc3ccco3)cc(=O)oc2c1,1,11,-7,1,1.5,23320*,-37
CCn1c(Cc2ccc(OC)cc2)nnc1SCc1nc2ccccc2c(=O)[nH]1,2,-7,7,13,3.4,3829,-4
CCCn1c(SCC(=O)Nc2ccccc2N2CCOCC2)nc2c1c(=O)n(C)c(=O)n2C,3,-2,x,x,1.1,2836,-6
CCN(Cc1ccc(OC)c(COC)c1)CC1CCCN(CCc2cccc(F)c2)C1 (centres undefined),1,-6,4,11,-2.1,5170,-5
CCN(CC)Cc1c(O)ccc2c(=O)c(-c3ccccc3OC)coc12,9,0,12,3,4.4,4020,7
COc1ccc(OC)c(C(=O)NC(CC(N)=O)c2ccc(N3CCC(Cc4ccccc4)CC3)c([N+](=O)[O-])c2)c1 (centres undefined),-2,3,4,0,-1.9,4096,-28
CCc1ccc(CN2CCC(n3nccc3NC(=O)Cc3ccccc3)CC2)o1,-4,11,18,5,0.1,6386,-10
CCOc1ccc(NC(=S)NCc2ccc3c(c2)OCO3)cc1,4,-7,1,-4,-1.0,3391,-2
Cc1cccn2c(CNCCc3ccco3)c(C(=O)N3CCOCC3)nc12,3,10,2,5,-1.5,u,-5
O=C(NNC(=O)c1cc([N+](=O)[O-])ccc1Cl)c1cccnc1,2,x,-6,2,4.9,5875,-28
CCOC(=O)C(NC(=O)Nc1ccc(O)cc1)(c1ccccc1)C(F)(F)F (centres undefined),1,-8,-7,5,3.3,2560,-4
CCCC(NC(=O)C(C)N1CCN(S(=O)(=O)c2ccccc2)CC1)c1ccccc1 (centres undefined),8,x,10,6,6.3,x,-4
COC(=O)CCCCCNC(=S)Nc1ccc2[nH]c(=O)[nH]c2c1,1,-4,-11,10,3.9,x,-5
CC(=O)c1ccc(S(=O)(=O)Nc2cccc(-n3cnnn3)c2)cc1,-1,4,-5,7,1.4,5191,-6
Cc1cc(OCc2ccc([N+](=O)[O-])cc2)c2c3c(c(=O)oc2c1)CCCC3,22,15,2,7,0.9,9862,-14
CCC(OC(=O)C(CC(C)C)NC(=O)c1ccccc1)C(=O)Nc1nnc(C)s1 (centres undefined),-1,x,9,7,2.2,5835,-10
Nc1nc(NCC2CCCO2)nc(Nc2ccccc2)c1[N+](=O)[O-] (centres undefined),-8,5,1,9,8.3,2181,-7
